# High-throughput results as filed in PubChem.
# E coli growth: blocks Escherichia coli growth; actives 0.21% (n = 330,000); OD600, 23 h; active compounds read low; AID 1053175; OD600 absorbance (no concentration beside the values);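 active = OD600 absorbance below the run mean of sample wells minus 3.6 SD, in any replicate, cut at about 0.56 in these data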;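 note: stock transfer was 300 nL into about 60 µL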
# UCH37 DUB inh: blocks the human deubiquitinase UCH37 | inhibition, % (test concentration not listed) | AID 588478 | actives 0.33% (n = 330,000) | purified proteasome/UCH37, Ub-AMC cleavage fluorescence | Q9Y5K5;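 active = mean of two replicates above 20%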;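 note: 0% = compound-free wells with enzyme and 100% = wells lacking proteasome; stock transfer was 100 nL into about 20 µL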
#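 Material: Human UCH37 enzyme supplied as purified proteasome complex | Schedule: 30 min compound-proteasome preincubation then 25 min substrate reaction, room temperature | Detection: AMC fluorescence from Ub-AMC cleavage, excitation 355 nm, emission 460 nm | Benchmarks: Wells without proteasome as full block, compound-free enzyme plus substrate as uninhibited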
# B2AR ag: agonists of human beta-2 adrenergic receptor inducing internalization; P07550; actives 0.43% (n = 340,000); Am2.2-beta2AR cells, FAP receptor internalization, flow cytometry; reference of the scale not given here; response, % (test concentration not listed);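 active = response above a set limit, near 3 SD of response in nonfluorescent compounds, cut at about 42% in these data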;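 note: stock transfer was 100 nL into about 11 µL; a reference agonist was the positive control; negative values mostly stem from fluorescent compounds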
# Target sequence (P07550 whole entry, looked up): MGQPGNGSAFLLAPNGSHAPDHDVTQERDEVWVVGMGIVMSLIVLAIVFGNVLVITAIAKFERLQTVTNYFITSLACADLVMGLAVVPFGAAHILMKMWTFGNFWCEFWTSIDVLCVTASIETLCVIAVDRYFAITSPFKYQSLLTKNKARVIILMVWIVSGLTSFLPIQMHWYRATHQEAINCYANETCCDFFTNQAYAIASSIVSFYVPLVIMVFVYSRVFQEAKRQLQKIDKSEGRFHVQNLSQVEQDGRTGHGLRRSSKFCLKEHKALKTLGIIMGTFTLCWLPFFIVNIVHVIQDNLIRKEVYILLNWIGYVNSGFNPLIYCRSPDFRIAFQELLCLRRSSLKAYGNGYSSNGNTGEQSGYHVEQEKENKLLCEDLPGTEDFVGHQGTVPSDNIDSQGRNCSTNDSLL
# HNF4A DNA FP: change in binding of human HNF4 alpha to DNA; HNF4a-FITC DNA binding, fluorescence polarization, 1 h; actives 0.3% (n = 360,000); activity change, % at 10 µM; P41235; in the data active = activity change above about 30%, passing the limit was not always enough;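 note: controls were the assay level and a saturating level of protein; the project sought stronger binding though the title names inhibitors; some compounds called inactive have numbers as strong as hits; positive values seem to mean higher polarization but the record does not say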
# Target sequence (P41235 whole entry, looked up): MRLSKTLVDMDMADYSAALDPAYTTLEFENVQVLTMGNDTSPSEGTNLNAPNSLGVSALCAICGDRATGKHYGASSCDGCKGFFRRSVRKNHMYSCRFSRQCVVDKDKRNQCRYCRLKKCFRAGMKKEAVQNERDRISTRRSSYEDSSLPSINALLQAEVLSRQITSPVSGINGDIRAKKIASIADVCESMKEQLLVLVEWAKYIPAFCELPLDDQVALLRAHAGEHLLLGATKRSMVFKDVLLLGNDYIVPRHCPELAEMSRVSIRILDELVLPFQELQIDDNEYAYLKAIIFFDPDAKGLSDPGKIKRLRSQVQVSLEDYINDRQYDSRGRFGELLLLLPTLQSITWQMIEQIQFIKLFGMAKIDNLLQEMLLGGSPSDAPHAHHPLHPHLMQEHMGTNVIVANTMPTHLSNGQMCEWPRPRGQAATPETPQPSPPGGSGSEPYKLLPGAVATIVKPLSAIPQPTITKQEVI
# ALR inh: human ALR oxidase inhibition via reduced H2O2; actives 3.8% (n = 290,000); AID 485317; P55789; inhibition, % (concentration not given with the values); purified ALR, DTT oxidation, H2O2 HRP-luminol luminescence;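 active = mean and each replicate at 75% or more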;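 note: stock transfer was 7.5 nL into about 7.5 µL; 0% = neutral wells and 100% = wells with inactivated enzyme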
# Target sequence (P55789 whole entry, looked up): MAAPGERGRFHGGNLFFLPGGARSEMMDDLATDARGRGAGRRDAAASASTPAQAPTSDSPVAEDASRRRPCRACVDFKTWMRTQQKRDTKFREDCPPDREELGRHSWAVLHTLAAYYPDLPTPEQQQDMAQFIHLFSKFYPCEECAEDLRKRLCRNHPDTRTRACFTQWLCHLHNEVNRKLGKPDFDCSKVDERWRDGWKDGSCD
# FGF22 binding: shifts melting point of recombinant human FGF22; AID 651658; calls only at 9.99 µM; recombinant FGF22 thermal shift, SYPRO orange fluorescence; percent of sucrose octasulfate shift, DMSO zero; actives 1.5% (n = 340,000);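 active = melting point raised past a set limit in the mean and every replicate; three in four hits are not shown here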
# Ecoli rRNA inh: inhibitors of bacterial rRNA selective over humanized ribosomes; GFP signal change (wild-type ribosome), % (test concentration not listed); actives 1.6% (n = 350,000); E. coli WT GFP vs humanized-ribosome RFP mutants, fluorescence, 24 h; active compounds read low; DMSO median 0, no signal -100;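 active = significant combined selectivity score with lowered wild-type GFP, culture density cut under 30%, mutant RFP and density less affected; inactive = any of these conditions unmet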; note: one replicate is shown; some compounds called inactive have numbers as strong as hits
# Ecoli rRNA inh OD600: further read-out of Ecoli rRNA inh, marked with its call; OD600 change, %; measured here: OD600 growth;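 optical density of the mix in the first replicate; 0 = DMSO median and -100 = no signal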
# Ecoli rRNA inh RFP: further read-out of Ecoli rRNA inh, marked with its call; RFP signal change, %; measured here: RFP humanized mutant strains;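 first replicate; 0 = DMSO median and -100 = no signal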
# * = called active by the depositor; i = inactive; · = not tested or not shown.
SMILES,E coli growth,UCH37 DUB inh,B2AR ag,HNF4A DNA FP,ALR inh,FGF22 binding,Ecoli rRNA inh,Ecoli rRNA inh OD600,Ecoli rRNA inh RFP
Cc1c(OCc2ccccc2)c(=O)ccn1Cc1ccccc1,0.76,0.0,6,6.4,-1,·,·,·,·
CCOc1ccc(NC(=O)CCC(=O)O)cc1,0.73,0.4,-1,9.4,-10,·,·,·,·
CC(C)C1Oc2ccccc2N(CC(=O)N(C)C2CCCCC2)C1=O (stereo unspecified),0.67,3.0,-5,-1.9,3,i,-5,-11,-1.5
COc1ccc(-c2nnc(SCC(=O)Nc3cccc(Cl)c3)o2)cc1,0.69,0.9,1,3.6,-8,·,·,·,·
COc1ccc(NC(=O)NNC(=O)c2cc3ccccc3cc2O)cc1,0.68,-14,3,4.7,2,i,3,1,1.0
Cc1cc(C)c(NC(=O)Nc2ccccc2)c(C)n1,0.71,-2.0,7,3.6,·,i,9,12,-1.6
COc1ccc(/C=C/C(=O)OCCNC(=O)c2ccncc2)cc1OC,0.64,-23,-4,1.4,-14,i,-30,-30,-3.9
OCC[C@@H]1C[C@@H](O)[C@H](O)[C@@]2(CCCCO2)O1,·,0.9,-1,2.4,2,i,15,10,-1.2
N#CC1(C#N)CC(C=O)=C(N)C1(C#N)CC(=O)C12CC3CC(CC(C3)C1)C2 (stereo unspecified),0.68,4.2,10,0.4,96*,i,·,·,·
CCOc1ccccc1OCCCC(=O)N(C)CC(=O)Nc1cc(C)ccc1C,0.61,-0.5,5,-2.1,-3,i,-8,-2,-7.8
S=C(c1ccc(-c2cccc(Cl)c2)o1)N1CCOCC1,0.66,8.2,-7,4.7,-2,i,0,0,2.7
COc1ccc(C(O)c2nc(-c3ccoc3)cs2)cc1 (stereo unspecified),·,·,·,0.9,·,i,3,11,3.8
CC1=C(C(=O)N2CCOCC2)CC(CC(=O)NCCCCc2ccccc2)C(=O)N1CCCN1CCCC1=O (stereo unspecified),·,·,·,-0.1,·,i,19,6,3.4
O=C1NC[C@H](Cc2ccc(O)cc2)N(C[C@@H]2CCCN2C[C@H](Cc2ccccc2)N2C[C@H](Cc3ccccc3)N(CC3CCCCCC3)C(=O)C2=O)C1=O,·,·,·,2.0,·,i,4,5,11
Cc1ccnc(NC(=O)c2ccc([N+](=O)[O-])o2)c1,0.56,1.2,49*,-1.7,-33,·,·,·,·
Cc1ccc(-n2nc3c(N4CCC(C(=O)N5CCCCCC5)CC4)nnc(C)c3c2C)cc1,0.69,-18,20,4.7,-7,·,·,·,·
CCCCOP(=O)(c1ccc(N(C)C)cc1)C(O)c1ccc(C(C)C)cc1 (stereo unspecified),0.67,5.2,-2,-4.0,6,i,-7,-42,12
Cc1cc(-c2ccc(S(=O)(=O)N3CCN(c4cccc(C)c4C)CC3)s2)on1,0.72,1.3,0,4.0,-1,i,5,5,0.0
CCCc1cc(=O)[nH]c(SCC(=O)c2cc(C)n(C3CC3)c2C)n1,0.68,4.8,1,1.9,2,·,·,·,·
Cc1ccc2[nH]c3c(c2c1)CCCC3NCCO (stereo unspecified),0.6,3.9,3,3.0,·,i,6,-2,4.0
CCC(=O)N1CCc2cc(S(=O)(=O)N3CCN(C(=O)c4ccco4)CC3)ccc21,0.73,1.5,-2,1.3,-8,·,·,·,·
COc1ccccc1NC(=O)/C(=C\c1cccnc1)NC(=O)c1ccccc1,0.66,2.0,-2,0.4,12,i,1,-14,-1.9
Cc1nc(C(C)NC(=O)c2cc(COc3ccc(F)c(F)c3)on2)cs1 (stereo unspecified),0.68,3.1,17,0.7,-12,i,5,-2,1.7
O=S(=O)(c1ccc(Cl)cc1)N1CCN(C(=S)NCC2CCCO2)CC1 (stereo unspecified),0.68,5.1,-3,-2.8,-13,i,2,-2,-1.9
Cc1ccc(C(=O)N(C)CC(=O)Nc2ccc(N3CCOCC3)cc2)s1,0.71,1.5,6,-1.3,·,i,-9,-8,8.2
O=C(NCc1ccccc1)C1=C[C@@H](c2csc3ccccc23)C[C@@H](OCCCCO)O1,·,0.3,·,·,0,i,-3,-12,6.9
CCC[C@H]1CN(c2ccc(Br)cc2)C(=O)[C@@H]1CC(=O)NC,·,·,·,-0.5,·,i,5,3,-4.6
Cc1ccc(S(=O)(=O)N2CCC(=O)N(C(COCc3ccc(C(F)(F)F)cc3)Cc3ccccc3)CC2)cc1 (stereo unspecified),0.68,4.9,0,6.2,-1,i,15,8,-6.5
CCCCn1c(=O)[nH]c2ccccc21,0.69,9.0,-4,3.4,33,i,6,8,0.0
C=CCC(NCc1ccco1)c1ccc(OC)c(OC)c1 (stereo unspecified),0.68,2.1,4,4.9,-8,·,·,·,·

# In a second layout: entries from further up.
SMILES | E coli growth | UCH37 DUB inh | B2AR ag | HNF4A DNA FP | ALR inh | FGF22 binding | Ecoli rRNA inh | Ecoli rRNA inh OD600 | Ecoli rRNA inh RFP
Cc1ccc(-n2nc3c(N4CCC(C(=O)N5CCCCCC5)CC4)nnc(C)c3c2C)cc1 | 0.69 | -18 | 20 | 4.7 | -7 | · | · | · | ·
CCCCOP(=O)(c1ccc(N(C)C)cc1)C(O)c1ccc(C(C)C)cc1 (stereo unspecified) | 0.67 | 5.2 | -2 | -4.0 | 6 | i | -7 | -42 | 12
Cc1cc(-c2ccc(S(=O)(=O)N3CCN(c4cccc(C)c4C)CC3)s2)on1 | 0.72 | 1.3 | 0 | 4.0 | -1 | i | 5 | 5 | 0.0
CCCc1cc(=O)[nH]c(SCC(=O)c2cc(C)n(C3CC3)c2C)n1 | 0.68 | 4.8 | 1 | 1.9 | 2 | · | · | · | ·
Cc1ccc2[nH]c3c(c2c1)CCCC3NCCO (stereo unspecified) | 0.6 | 3.9 | 3 | 3.0 | · | i | 6 | -2 | 4.0
CCC(=O)N1CCc2cc(S(=O)(=O)N3CCN(C(=O)c4ccco4)CC3)ccc21 | 0.73 | 1.5 | -2 | 1.3 | -8 | · | · | · | ·
COc1ccccc1NC(=O)/C(=C\c1cccnc1)NC(=O)c1ccccc1 | 0.66 | 2.0 | -2 | 0.4 | 12 | i | 1 | -14 | -1.9
Cc1nc(C(C)NC(=O)c2cc(COc3ccc(F)c(F)c3)on2)cs1 (stereo unspecified) | 0.68 | 3.1 | 17 | 0.7 | -12 | i | 5 | -2 | 1.7
O=S(=O)(c1ccc(Cl)cc1)N1CCN(C(=S)NCC2CCCO2)CC1 (stereo unspecified) | 0.68 | 5.1 | -3 | -2.8 | -13 | i | 2 | -2 | -1.9
Cc1ccc(C(=O)N(C)CC(=O)Nc2ccc(N3CCOCC3)cc2)s1 | 0.71 | 1.5 | 6 | -1.3 | · | i | -9 | -8 | 8.2
O=C(NCc1ccccc1)C1=C[C@@H](c2csc3ccccc23)C[C@@H](OCCCCO)O1 | · | 0.3 | · | · | 0 | i | -3 | -12 | 6.9
CCC[C@H]1CN(c2ccc(Br)cc2)C(=O)[C@@H]1CC(=O)NC | · | · | · | -0.5 | · | i | 5 | 3 | -4.6

# Continuation.
SMILES,E coli growth,UCH37 DUB inh,B2AR ag,HNF4A DNA FP,ALR inh,FGF22 binding,Ecoli rRNA inh,Ecoli rRNA inh OD600,Ecoli rRNA inh RFP
CCCCNS(=O)(=O)c1ccc(NC(=O)c2cccs2)cc1,0.65,0.3,-10,0.8,·,i,-20,-11,-2.2
CC(C)CC(=O)Nc1ccc2c3c(cccc13)CC2,0.71,-1.7,9,0.5,-7,·,·,·,·
O=C(Nc1nc2ccccc2[nH]1)c1ccc([N+](=O)[O-])cc1,0.67,1.3,-10,-5.5,0,i,15,7,-1.8
Cc1cccc(N(CC(=O)NC(C)C)C(=O)CCC(=O)Nc2nccs2)c1,0.63,1.7,-7,6.7,-3,i,0,8,1.0
O=C(c1ccc(S(=O)(=O)Nc2ccc(F)cc2)cc1)N1CCN(C(=O)c2ccco2)CC1,0.73,0.7,-2,-1.3,-3,·,·,·,·
COc1ccccc1OC1OC2COC(c3ccco3)OC2C(O)C1NC(C)=O (stereo unspecified),0.65,0.0,6,-2.3,2,i,-9,-16,0.0
Cc1cc2ccccc2n1CCC(=O)O,0.71,3.6,0,-0.9,-11,i,12,13,8.4
O=C(CN1C(=O)CSc2ccccc21)N/N=C/c1ccco1,·,·,-1,2.0,·,i,23,9,5.1
Cc1c([N+](=O)[O-])c([N+](=O)[O-])nn1CC(=O)NCCc1ccccc1,0.68,0.8,6,-0.3,-19,i,3,-19,23
Cc1ccccc1CN1CCN(S(=O)(=O)c2ccc(F)cc2)CC1,0.66,1.6,0,2.9,·,·,·,·,·
CN(C)S(=O)(=O)N1CCN(c2ccc([N+](=O)[O-])c(N3CCOCC3)c2)CC1,0.65,11,-11,3.1,-34,i,1,-3,4.1
COc1ccc(OC(C)C(=O)Nc2ccccc2F)cc1 (stereo unspecified),0.74,-0.2,4,1.4,-2,·,-5,6,-2.9
CN(C1CCCCC1)S(=O)(=O)c1cc2c(cc1Cl)NC(=O)CO2,0.63,6.5,14,1.8,-1,i,0,2,21
CCOc1ccc(OCC(=O)c2c(O)c3ccccc3oc2=O)cc1,0.76,3.3,-4,4.4,5,·,·,·,·
Cc1ccc(C(=O)N/C(=C\c2ccco2)C(=O)NCCCn2ccnc2)cc1,0.72,2.4,-10,0.7,-1,·,·,·,·
O=C(NCC(c1ccco1)N1CCc2ccccc21)C(=O)Nc1ccccc1F (stereo unspecified),0.69,1.5,-13,6.4,7,·,5,10,1.3
CCN(CC)c1nc(C)nc2c1cnn2CCc1ccccc1,0.68,1.9,-6,-2.7,·,·,·,·,·
CN(C)S(=O)(=O)c1cccc(NC(=O)c2cccc(S(=O)(=O)N3CCCCCC3)c2)c1,0.7,1.3,10,-1.6,·,i,-15,-13,2.6
O=C(NC(C(=O)N/N=C/c1c2ccccc2cc2ccccc12)c1n[nH]c(=O)c2ccccc12)c1ccccc1 (stereo unspecified),·,·,9,2.9,-7,·,·,·,·
FC(F)(F)C12CC(c3ccccc3)=NCCN1CCN2 (stereo unspecified),0.65,-21,-5,2.8,-5,·,·,·,·
CCOc1ccc(NC(=O)C(Cc2ccccc2)N2C(=O)c3cccc4cccc(c34)C2=O)cc1 (stereo unspecified),0.62,2.2,3,5.8,-6,i,12,14,1.4
CC(C)NC(=S)Nc1cccc2cnccc12,0.68,-1.4,8,0.6,-26,i,3,16,-6.9
Nn1c(SCC(=O)Nc2ccc3c(c2)OCO3)nnc1C1CC1,0.74,-2.1,-6,3.5,-18,·,·,·,·
CCCc1cc(NCc2ccccn2)n2c(nc3ccccc32)c1C#N,0.71,-202,8,0.6,-5,i,17,1,1.1
CCOc1ccc(-n2c(SCC(=O)N3CCC(C(=O)O)CC3)nc3ccccc3c2=O)cc1,0.66,4.7,2,-1.7,-1,i,0,-4,3.3
N#Cc1nc(COc2ccccc2Cl)oc1NCc1cccnc1,0.71,2.3,-18,-0.7,6,·,·,·,·
CC(=O)c1ccc(S(=O)(=O)N(C)CC(=O)Nc2cc(C)on2)cc1,0.68,2.5,2,4.6,·,i,8,11,-0.5
COc1ccc(OC)c(C(=O)NC2CCSc3ccccc32)c1 (stereo unspecified),0.69,-0.1,5,-0.5,2,i,3,-2,-4.5
CN(C(=O)CCc1nc(-c2ccccc2F)no1)c1ccccc1,0.69,1.6,-13,4.5,-2,i,-8,-5,17
COc1ccc(N(CC(=O)NCCC2=CCCCC2)S(C)(=O)=O)cc1,0.67,-0.4,0,0.5,-7,·,·,·,·
Cc1cccc(C)c1NC(=O)C(=O)NCCCN1CCOCC1,0.72,7.4,0,1.1,-2,i,12,9,1.4
CC(C)c1cc(Cn2c3ccccc3c(=O)n2C(C)Cn2cc(C3=CCCCC3)nn2)on1 (stereo unspecified),·,·,·,0.9,·,i,2,-17,-1.8
COc1ccc(C(=O)N2CCN=C2SCc2cccnc2)c(OC)c1,0.73,7.1,3,3.5,100*,i,2,1,-0.5

# These rows are one share of the data (hit frequency here may not be typical).
